# Source: PubChem (National Center for Advancing Translational Sciences (NCATS))
# NPR1 antag = blocks ANP-stimulated signaling of human Npr1 receptor; P16066; HEK293 hNpr1 GloSensor cGMP, ANP-stimulated luminescence; AID 1347048; Potency, µM (doses to about 46.3 µM), for inactives: at the highest dose activity change, negative = inhibition, usual class: inhibitors; 76,000 compounds, 1.6% hits; active = well fitted inhibition curve with a large enough effect; inconclusive = small, poorly fitted or top-dose-only effect; inactive = no such curve, though single readings can be large or run the other way;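 note: nearly all actives have a fitted effect of over 60% in size; nearly all hits also lower the signal before the agonist is added; a reference antagonist and vehicle were the controls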
# Target sequence (P16066 whole entry, looked up): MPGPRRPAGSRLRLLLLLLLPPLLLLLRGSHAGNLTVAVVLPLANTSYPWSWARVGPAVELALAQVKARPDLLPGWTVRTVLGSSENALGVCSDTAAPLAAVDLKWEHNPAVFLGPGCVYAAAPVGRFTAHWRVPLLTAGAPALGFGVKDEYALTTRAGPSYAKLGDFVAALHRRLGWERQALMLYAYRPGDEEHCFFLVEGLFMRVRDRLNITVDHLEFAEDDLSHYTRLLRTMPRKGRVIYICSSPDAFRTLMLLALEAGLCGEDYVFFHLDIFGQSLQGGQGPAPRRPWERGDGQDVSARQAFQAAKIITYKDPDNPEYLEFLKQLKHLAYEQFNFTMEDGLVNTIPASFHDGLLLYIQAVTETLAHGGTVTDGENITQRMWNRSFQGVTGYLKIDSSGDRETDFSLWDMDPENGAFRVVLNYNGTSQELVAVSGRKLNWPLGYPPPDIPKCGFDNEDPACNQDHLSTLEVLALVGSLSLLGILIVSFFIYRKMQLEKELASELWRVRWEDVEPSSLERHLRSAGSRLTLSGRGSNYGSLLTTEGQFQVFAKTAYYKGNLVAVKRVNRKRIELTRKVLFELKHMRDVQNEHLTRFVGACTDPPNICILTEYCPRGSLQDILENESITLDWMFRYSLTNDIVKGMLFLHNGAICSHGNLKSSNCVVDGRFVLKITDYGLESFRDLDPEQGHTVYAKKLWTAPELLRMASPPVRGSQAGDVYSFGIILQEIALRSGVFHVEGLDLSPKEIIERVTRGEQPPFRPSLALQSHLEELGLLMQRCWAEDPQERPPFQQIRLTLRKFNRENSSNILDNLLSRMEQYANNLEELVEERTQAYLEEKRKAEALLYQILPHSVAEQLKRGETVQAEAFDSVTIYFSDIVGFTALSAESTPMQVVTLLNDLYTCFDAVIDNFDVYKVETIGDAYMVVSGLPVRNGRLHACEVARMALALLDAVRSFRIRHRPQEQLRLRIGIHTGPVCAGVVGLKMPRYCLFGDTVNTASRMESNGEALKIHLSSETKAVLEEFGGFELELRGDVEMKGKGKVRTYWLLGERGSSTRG
#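 HEK293 cells stably expressing human Npr1 and cGMP GloSensor pGS-40F, loaded 2 h with 2% GloSensor reagent, given compound 30 min at room temperature. Luminescence read before and 20 min after 0.1 nM hNppA.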
# Numbers without * were called inactive; ? = inconclusive; [ ] = dose if it differs, or a comment. % is set by controls: 0 for no effect and ±100 for the full control effect; potency is the fitted concentration of half-maximal effect. An excerpt; the hit share may differ from the screen's.
SMILES,NPR1 antag
COc1cccc(-c2cccc(C(=O)N3C[C@H](CO)C[C@H](CN(C)C)C3)c2)c1,2%
CCCn1cc(CN2C[C@@H]3C(=O)N(Cc4ccc5c(c4)OCO5)C(=O)[C@@H]3C2)c2ccccc21,-1%
COCCn1c(C)cc(C(=O)N2C[C@@H](CO)[C@H](c3ccccn3)C2)c1C,-13%
Cc1ccccc1CC(=O)Nc1ccc2ncnc(N3CCCCC3)c2c1,-7%
COc1ncc(-c2ccnc(-c3nnc(C)n3CCc3ccccc3)c2)cn1,5%[70.6 µM]
O=C(C1[C@H]2CNC[C@@H]12)N1CCC(c2nccn2Cc2ccncc2)CC1 (stereo partly specified),3%
O=C(CC1CCCC1)N1CC[C@@H]2COCCN(Cc3ccccc3)[C@@H]2C1,-2%
CC(=O)N1C[C@@H](C(=O)NCc2ccc(F)c(Cl)c2)[C@H](c2nc(C)no2)C1,-2%
CC(C)Oc1ccc(C(=O)N2C[C@@H]3CCN(C)C[C@]3(C(=O)O)C2)cc1,-5%
CC(C)NC(=O)c1ccccc1OCC1CCCN(C2CCC2)C1 (stereo unspecified),-14%
O=C(Cn1nc2c(cc1=O)CCCC2)NC1CCCc2c1[nH]c1ccccc21 (stereo unspecified),0%
COc1ccccc1Cc1nccc(C2(c3ccccc3Cl)CCNCC2)n1,-15%
Cc1noc([C@@H]2CN(C(=O)c3ccnn3C)C[C@H]2COCC2CC2)n1,-3%
CC(O)c1cc2n(n1)CCN(CCS(=O)(=O)c1ccccc1)C2 (stereo unspecified),4%
O=C(NCCc1ccncc1)C1CN(C(=O)c2ccc(F)c(F)c2)CC12CCOCC2 (stereo unspecified),-7%
CCOC(=O)c1ccc(NC(=O)Cn2nc3n(c2=O)CCCCC3)cc1,3%
Cc1cc(C(=O)N[C@H](C)c2onc(-c3ccc(F)cc3)c2C(=O)O)nn1C,-1%[70.6 µM]
N#Cc1ccc(S(=O)(=O)N2CCCC(CO)CCNC(=O)CC2)cc1 (stereo unspecified),2%
O=C1N2CCCC2CN1C1CCN(Cc2ccc3ccccc3c2)CC1 (stereo unspecified),5%
Cc1ncsc1CN1CC(N(C2CCOCC2)S(C)(=O)=O)C1,-11%
COc1cc(OC)c(CN2CCCCCC2c2ccco2)c(OC)c1 (stereo unspecified),-22%
COCCOC1CCN(C(=O)C2(c3ccccc3)CC2)CC1,0%
CO[C@H]1[C@H](NC(=O)Cc2cccc(C)c2)c2ccccc2C12CCNCC2,3%
COc1ccccc1Nc1cnc2ccc(-c3ccc(F)cc3)nn12,-10%[70.6 µM]
CCC1CN(C(=O)c2ccc3nc(-c4ccccc4)cn3c2)CCN1C(C)C (stereo unspecified),3%
O=C1Nc2ccc(-c3ccc(Cl)cc3)cc2C(=O)N2CCN(C(=O)c3ccccc3)C[C@H]12,-23%
Cc1ccc(S(=O)(=O)N(C)CC2CCOC2)cc1F (stereo unspecified),-3%
COc1ccc(-c2noc(-c3cccn3CC(=O)Nc3cc(C)ccc3C)n2)cc1F,1%
COCCNC(=O)c1cc(-c2ccccc2F)cc2c1OCCN2Cc1cccnc1,-18%[70.6 µM]
O=C(Nc1ccc(F)c(F)c1)N1CCc2c(c3ccccc3n2CC2CC2)C1,-25%
C[C@@H](NCc1ccc(F)cc1)c1onc(-c2ccc(Cl)cc2)c1C(=O)O,2%[70.6 µM]
CO[C@H]1C(=O)N(C(C)C)[C@H]1C1CCN(S(=O)(=O)Cc2ccccc2F)CC1,0%
O=C(NCc1c[nH]c2ncccc12)c1ccccn1,4%[70.6 µM]
Cc1cccc(OCC(=O)NCCn2cccc2-c2nc(-c3ccc4c(c3)OCO4)no2)c1,-16%
O=C(NC1CCCN(c2nc3ncccc3o2)C1)c1ccccc1F (stereo unspecified),5%
Cc1cn2nc(C(=O)N3CCN(C(=O)c4ccco4)CC3)cc2c(N2CCCC2)n1,2%
COc1cccc(CN2CCn3c(nnc3[C@@H]3C[C@@H](O)CN3Cc3ccccc3)C2)c1,-2%
CN(Cc1ccccc1C(F)(F)F)C1CCCc2ccccc21 (stereo unspecified),27%[70.6 µM]
CC(NC(=O)COc1ccc(F)cc1F)c1ccccc1-n1cccn1 (stereo unspecified),0%
Cc1ccccc1CN1CCCC(COc2ccccc2C(=O)N2CCCC2)C1 (stereo unspecified),4%
COCc1nnc2n1CCC(NC(=O)CCc1c(C)nn(C)c1C)CC2 (stereo unspecified),-2%
CCN1C(=O)Cc2ccccc2C1C(=O)NCc1ccc(Cl)cc1 (stereo unspecified),-12%
Cc1noc(C)c1-c1cc2cc(C(C)C)oc2c(NC(C)C)n1,-2%[70.6 µM]
O[C@@H]1C[C@@H](c2nc(-c3ccccc3)no2)N(Cc2ccncc2)C1,?
Cc1nc(C(=O)N2CC[C@H](NS(=O)(=O)c3cccs3)C[C@H]2C(=O)N[C@H](Cc2c[nH]c3ccccc23)C(N)=O)cs1,3%
CCOc1ccccc1NC(=O)CC1CCCN(c2cnn(CCOC)c(=O)c2)C1 (stereo unspecified),-14%
CC(C)N1C(=O)OCC12CCN(Cc1cccc(C#N)c1)C2 (stereo unspecified),-6%[70.6 µM]
CN(C)Cc1ccc(-c2ccc(CO)cc2CO)cc1,2%
COc1ccc(CCCN2C(=O)O[C@@H]3CN(c4cc(OC)ncn4)C[C@@H]32)cc1,13µM*
COCCN1C(=O)CCc2cc(NC(=O)Cc3ccc(OC)cc3Cl)ccc21,-14%
CCn1c(Cn2ccnc2C)nnc1C1CCN(c2cc(C#N)ccn2)CC1,-6%
CN1CC(=O)N(C2CCC2)Cc2c(NCc3cccs3)ncnc21,4%[70.6 µM]
FC(F)(F)Oc1cccc(CNC[C@H]2Cn3ccnc3CO2)c1,0%[70.6 µM]
CNC(=O)[C@@H]1C[C@H](Oc2ccccc2)CN1C(=O)c1ccc(OC)nc1OC,3%
Cc1ccc(CCNC(=O)C2CCN(c3cc(C(F)(F)F)ncn3)CC2)cc1,?
COCC(=O)Nc1c(C(=O)OC)n(CCCc2ccccc2)c2ncc(NC(C)CCO)cc12 (stereo unspecified),3%
Cc1noc(C)c1CN1CCCC(COc2ccccc2C(=O)N2CCC(C)CC2)C1 (stereo unspecified),-6%
O=C(NC1CCCCC1)[C@@H]1C[C@@H](O)CN1C1CCN(C(=O)c2n[nH]c3ccccc23)CC1,3%
CNCCN(C)C(=O)C1CCCN(C2CCN(C3Cc4ccccc4C3)CC2)C1 (stereo unspecified),0%
Cc1ccc(CN2CC[C@@](C)(O)[C@H](N3CCCC3)C2)s1,7%

# The list continues:
SMILES,NPR1 antag
OCc1nnc(C2CC(Nc3ncnc4ccccc34)C2)n1C1CC1 (stereo unspecified),10%
COc1ccnc(CN2CCN(C)C3(CCC(=O)N(C)CC3)C2)c1OC (stereo unspecified),3%
OCC1(CN2CCCC2)CCN(Cc2cccc3cc[nH]c23)CC1,7%
O=C(Cn1nc2n(c1=O)CCCCC2)NCc1ccccc1Br,-6%
COc1ccc(CNC(=O)NCC2Cn3cccc3C(=O)N2Cc2ccccc2)cc1 (stereo unspecified),-11%
O=C(NCCc1ccc(Cl)cc1)c1nc(-c2ccc(F)cc2)c2cnccn12,0%
Clc1ccc(C2Cn3nnc(-c4noc(C5CC5)n4)c3CO2)cc1 (stereo unspecified),-12%
COc1ccc(CCNC(=O)Cn2cccc2-c2nc(-c3ccc(F)cc3)no2)cc1OC,0%
Cc1noc(-c2cccn3c(CNC(=O)c4cccc(N(C)C)c4)nnc23)n1,14%
COc1ccccc1CN1CCCn2nc(C)c(-c3ccccc3C(N)=O)c21,14µM*
Cc1cccc(C(=O)NC2CCN(c3cn[nH]c(=O)c3)CC2)c1,-11%
CN1C(=O)C2(CCN(C(=O)C3(c4ccccc4)CC3)CC2)c2ccccc21,-14%
CCOC(=O)c1ccc(NC(=O)C2CC(=O)N(c3n[nH]c4ccccc34)C2)cc1 (stereo unspecified),1%
O=C(NCC1CCCO1)c1cc2c(=O)[nH]c(-c3ccccc3)cn2n1 (stereo unspecified),5%
CC(C)C(=O)N1CCC2(CC1)OCC(C(=O)N1CCCC1)N2C(=O)c1ccccc1 (stereo unspecified),0%
CC(C)Cc1cc(C(=O)N2CCC3(CC2)Nc2ccccc2NC3=O)n[nH]1,-12%
O=C(N[C@@H]1CCOC[C@H]1OCCO)c1ccc(CN2CCCCCC2)cc1,0%
CN1C[C@H](C(=O)NCc2ccncc2)C[C@H]1c1cccc(C(F)(F)F)c1,-14%[70.6 µM]
COc1ccc(-c2cc(N3CCCC(NC(=O)c4cccc(C#N)c4)C3)n[nH]2)cc1 (stereo unspecified),-16%
CCOc1ccc(CC(=O)N2CCC(Cc3nc(C(C)C)no3)CC2)cc1,-15%
COc1cccc(-c2ccccc2NC(=O)C2CCN(C/C(C)=C/c3ccccc3)CC2)c1,-28%
COCCOC1CCOC2(CCN(C(=O)C3(c4ccccc4)CC3)CC2)C1 (stereo unspecified),4%
Cc1noc(-c2ccc(OC3CN(C(=O)Cc4ccccc4)C3)cc2)n1,-15%
C[C@@H](NC(=O)C1=C[C@@H](NC(=O)c2cccs2)[C@@H](O)[C@H](O)C1)C(N)=O,1%[70.6 µM]
C=CCNC(=O)C[C@@H]1CCN(S(=O)(=O)c2ccc(OC)cc2)C[C@@H]1CC,0%[70.6 µM]
CC1=NS(=O)(=O)N(C)C=C1C(=O)OCc1nc(Cc2cccc(C)c2)no1,?
O=C(CCn1nnc2ccccc21)N1CCc2c(ncnc2N2CCOCC2)C1,1%
CNC(=O)CN(C)C(=O)c1cc2c(s1)CCN(C(=O)c1ccc(Cl)cc1)C2,-1%
CCCN(CC1CCOC1)S(=O)(=O)c1ccc2c(c1)OCCO2 (stereo unspecified),2%
COc1ccc(-c2nc(C(C)C)nc3c2CCN(C(=O)Nc2ccccc2)CC3)cc1,5%

# Copied from the list.
# NPR1 antag, CN1C[C@H](C(=O)NCc2ccncc2)C[C@H]1c1cccc(C(F)(F)F)c1 : -14%[70.6 µM]
# NPR1 antag, COc1cccc(-c2ccccc2NC(=O)C2CCN(C/C(C)=C/c3ccccc3)CC2)c1 : -28%

# Other compounds follow.
SMILES,NPR1 antag
O=C1CCN(C(=O)c2ccccc2)CCCC(C(=O)NCCCN2CCCC2)CCN1 (stereo unspecified),0%
O=C(c1ccc(Br)o1)N1CCN(C2CCN(Cc3ccccn3)C2=O)CC1 (stereo unspecified),3%
O=C1NCCCCCCN[C@H]2C[C@H](c3nc(-c4cccnc4)no3)C[C@@H]12,5%
CC(=O)N1CCCC2(C1)CN(C)c1ccc(C(=O)NCC(F)(F)F)cc12 (stereo unspecified),-1%[70.6 µM]
CC(C)CCN1CCC(N2CCN(S(=O)(=O)c3ccc4c(c3)CCC4)CC2)C1=O (stereo unspecified),4%
CN(C)c1cccc(-c2cnc(NC(=O)c3ccncc3)c3c2CCO3)c1,-3%[70.6 µM]
O=C(CC1=C2CCCCC2N(Cc2ccccc2)C1=O)NC1CC1 (stereo unspecified),-5%
COCCC(=O)N1CC[C@H]2COC(=O)N2c2cc(F)ccc2C1,0%[70.6 µM]
CNC(=O)c1cccc(Nc2ncc3c(n2)CN([S+](=O)([O-])c2cccc(OC)c2)CCN3)c1,4%
Cc1cc2nc3n(c(=O)c2n1CC(=O)NC1CCc2ccccc21)CCCC3 (stereo unspecified),-16%
CN1C(=O)C2(CCN(C(=O)CCn3cnnn3)CC2)c2ccccc21,1%
Cc1cccc(-n2nc(C)c(CCC(=O)N(C)C(C)C)c2Oc2ccc(F)cc2F)c1,?
COc1ccc(C(=O)Nc2cccc(-c3nnc4n3CCCC4)c2)cc1F,-4%
Cc1cc2nc3n(c(=O)c2n1CC(=O)Nc1ccc(Br)cc1)CCCC3,-2%
CCc1nc(C)c(C(=O)N[C@@H]2c3ccccc3C3(CCNCC3)[C@H]2OC)o1,-3%
Cc1cc(C(F)(F)F)n(-c2nc(C(=O)N3CCOCC(O)C3)cs2)n1 (stereo unspecified),-3%
O=C(O)C[C@@H]1CCN(C(=O)c2ccc(F)cc2)C[C@@H]1CCN1CCN(c2cccc(C(F)(F)F)c2)CC1,3%
CCn1c2c(c(=O)n1Cc1ccccc1)CCN(C(=O)Cc1ccc3c(c1)OCO3)C2,3%[70.6 µM]
COc1cc(F)ccc1-c1ccnc2nc(Cc3ccc(F)cc3)nn12,-17%

# Entries shown so far that have sulfur:
SMILES,NPR1 antag
CC(O)c1cc2n(n1)CCN(CCS(=O)(=O)c1ccccc1)C2 (stereo unspecified),4%
N#Cc1ccc(S(=O)(=O)N2CCCC(CO)CCNC(=O)CC2)cc1 (stereo unspecified),2%
Cc1ncsc1CN1CC(N(C2CCOCC2)S(C)(=O)=O)C1,-11%
Cc1ccc(S(=O)(=O)N(C)CC2CCOC2)cc1F (stereo unspecified),-3%
CO[C@H]1C(=O)N(C(C)C)[C@H]1C1CCN(S(=O)(=O)Cc2ccccc2F)CC1,0%
Cc1nc(C(=O)N2CC[C@H](NS(=O)(=O)c3cccs3)C[C@H]2C(=O)N[C@H](Cc2c[nH]c3ccccc23)C(N)=O)cs1,3%
CN1CC(=O)N(C2CCC2)Cc2c(NCc3cccs3)ncnc21,4%[70.6 µM]
Cc1ccc(CN2CC[C@@](C)(O)[C@H](N3CCCC3)C2)s1,7%
C[C@@H](NC(=O)C1=C[C@@H](NC(=O)c2cccs2)[C@@H](O)[C@H](O)C1)C(N)=O,1%[70.6 µM]
C=CCNC(=O)C[C@@H]1CCN(S(=O)(=O)c2ccc(OC)cc2)C[C@@H]1CC,0%[70.6 µM]
CC1=NS(=O)(=O)N(C)C=C1C(=O)OCc1nc(Cc2cccc(C)c2)no1,?
CNC(=O)CN(C)C(=O)c1cc2c(s1)CCN(C(=O)c1ccc(Cl)cc1)C2,-1%
CCCN(CC1CCOC1)S(=O)(=O)c1ccc2c(c1)OCCO2 (stereo unspecified),2%
CC(C)CCN1CCC(N2CCN(S(=O)(=O)c3ccc4c(c3)CCC4)CC2)C1=O (stereo unspecified),4%
CNC(=O)c1cccc(Nc2ncc3c(n2)CN([S+](=O)([O-])c2cccc(OC)c2)CCN3)c1,4%
Cc1cc(C(F)(F)F)n(-c2nc(C(=O)N3CCOCC(O)C3)cs2)n1 (stereo unspecified),-3%
